Six1-Eya2 inh: Six1/Eya2 interaction inhibition. activity change, % (no concentration beside the values). Q15475+O00167. hit rate 0.56% among 360,000. AlphaScreen GST-Six1/His-Eya2 binding, biochemical; stronger effect = lower value; control for the full effect not named in the record; in the data active = activity change below about -65%; inconclusive = about -30% to -65%; inactive = above about -30%; further: on the % scale 0 is the no-effect control and ±100 the full control effect; compound concentration not given in the record
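Homogeneous AlphaScreen proximity assay pairing GST-Six1 with His-tagged Eya2 (added as 5X mix: 250 nM and 500 nM) in 50 mM Tris pH 8.0, 300 mM NaCl, 1 mM TCEP. Glutathione donor and nickel acceptor beads; 1 h, 37 °C, dark.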
TRPML1 agonist: activates the human TRPML1 channel. hit rate 0.12% among 410,000. activation, % (concentration not given with the values). Q9GZU1. TRPML1-expressing cells, Ca2+ dye fluorescence, FDSS; host cell line not named in the record; reference of the full effect not given here; in the data active = activation above about 50%; inconclusive = about 30% to 50%; inactive = below about 30%; further: 0% is about no effect; the text of the record puts the active cut at 80%
Target sequence (Q9GZU1 whole entry, looked up): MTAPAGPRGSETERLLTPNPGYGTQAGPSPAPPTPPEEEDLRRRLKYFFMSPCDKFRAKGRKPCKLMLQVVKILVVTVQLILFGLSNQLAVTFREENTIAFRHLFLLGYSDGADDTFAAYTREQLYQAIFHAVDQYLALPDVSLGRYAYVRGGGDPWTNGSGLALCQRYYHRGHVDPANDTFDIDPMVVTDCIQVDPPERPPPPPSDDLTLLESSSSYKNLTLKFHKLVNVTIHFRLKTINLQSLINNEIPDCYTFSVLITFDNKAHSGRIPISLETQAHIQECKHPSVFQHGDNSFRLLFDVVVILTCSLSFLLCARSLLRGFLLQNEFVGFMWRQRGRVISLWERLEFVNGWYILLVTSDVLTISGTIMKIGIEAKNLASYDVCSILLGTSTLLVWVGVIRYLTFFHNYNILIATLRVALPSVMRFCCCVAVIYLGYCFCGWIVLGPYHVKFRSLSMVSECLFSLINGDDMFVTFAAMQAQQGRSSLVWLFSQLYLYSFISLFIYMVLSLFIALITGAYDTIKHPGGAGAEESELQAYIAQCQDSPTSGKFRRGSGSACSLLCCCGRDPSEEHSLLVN
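Calcium fluorescence on an FDSS kinetic reader gave the read-out. Tet-induced TRPML1-DL cells were plated overnight, dye-loaded (Ca8 with quencher, 45-90 min, room temperature, dark), then read 110 s after compound addition, and again 110 s after 4uM final 54-4 (EC80).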
PINK1 expr mod: modulators of PINK1 expression. Potency, µM (highest dose often 76.6 µM), without a hit: top-dose activation (PINK1 increase), most hits filed as activators. hit rate 0.2% among 410,000. AID 624263. PINK1 immunofluorescence, high-content cytometry, 24 h; active = well fitted activation curve with a large enough effect; inconclusive = small, poorly fitted or top-dose-only effect; inactive = flat fitted curve, though single readings scatter; cell line not stated here;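 further: potency means the concentration at half of the fitted maximal effect; % of control where 0% means no effect; nearly all actives have a fitted effect of over 65% in size; a mitochondrial uncoupler was the plate control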
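Readout is PINK1 immunofluorescence, quantified alongside mitochondrial, cell and nuclear markers by laser-scanning microplate cytometry. Cells from a stable line were exposed to compound titrations (5 concentrations) for 24 hours, with CCCP controls.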
D2 ag: activates the human D2 dopamine receptor; activation, % (concentration not given with the values); hit rate 0.084% among 360,000; DiscoveRx PathHunter D2 beta-arrestin, luminescence, 90 min; 100% = 57 uM dopamine signal; P14416; in the data active = activation above about 40%; inconclusive = about 15% to 40%; inactive = below about 15%; further: compound concentration not given in the record; the text of the record calls up to 30% inactive
Target sequence (P14416 whole entry, looked up): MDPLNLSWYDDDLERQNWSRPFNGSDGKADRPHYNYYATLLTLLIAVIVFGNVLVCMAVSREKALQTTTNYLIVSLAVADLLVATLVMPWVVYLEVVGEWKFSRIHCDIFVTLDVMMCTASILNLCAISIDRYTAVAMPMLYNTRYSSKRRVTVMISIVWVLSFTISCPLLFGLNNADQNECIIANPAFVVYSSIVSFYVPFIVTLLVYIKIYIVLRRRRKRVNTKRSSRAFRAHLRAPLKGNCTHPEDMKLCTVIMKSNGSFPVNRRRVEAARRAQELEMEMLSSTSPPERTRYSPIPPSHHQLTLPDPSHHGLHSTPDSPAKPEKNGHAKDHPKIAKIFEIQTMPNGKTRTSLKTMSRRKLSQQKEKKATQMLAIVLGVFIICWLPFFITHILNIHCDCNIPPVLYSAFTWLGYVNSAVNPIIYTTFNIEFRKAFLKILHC
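Agonist mode: compounds alone added to overnight-plated D2 PathHunter cells for 90 min at 37 C, with 57 uM final dopamine (EC100) defining full response. Beta-arrestin recruitment detected by chemiluminescent reagent, read after 1 h at ambient temperature.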
CtBP-E1A blk: CtBP/E1A binding inhibition; AlphaScreen GST-E1A/His-CtBP binding, 1536-well; stronger effect = lower value; control for the full effect not named in the record; activity change, % (no concentration beside the values); hit rate 0.49% among 340,000; AID 651724; in the data active means activity change below about -65%; inconclusive means about -30% to -65%; inactive means above about -30%; further: on the % scale 0 is the no-effect control and ±100 the full control effect; compound concentration not given in the record
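Homogeneous bead-based format: GST-tagged E1A captured on glutathione donor beads, His-tagged CtBP on nickel acceptor beads; compounds precede bead addition by 2 h at 37 °C.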
D2 PAM: positive allosteric modulators of human D2 dopamine receptor. potentiation, % (no concentration beside the values). P14416. DiscoveRx D2 beta-arrestin cells, luminescence, 90 min; 100% = 57 uM dopamine signal. hit rate 0.23% among 360,000; active = potentiation of 50% or more; inconclusive = 30% to 50%; inactive = 30% or less;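 further: compound concentration not given in the record; tested on top of an EC20 dose of dopamine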
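D2 cells co-treated with compound plus 50 nM dopamine (EC20) for 90 min at 37 deg C to detect potentiation. Beta-arrestin recruitment was read as enzyme-fragment luminescence after 1 h at ambient temperature. Full response was set by 57 uM dopamine.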
Starred values were filed as active, the others as inactive; ? = inconclusive; . = not tested or not shown; & = joins results of further samples; [ ] = dose if it differs, or a comment.

SMILES	Six1-Eya2 inh	TRPML1 agonist	PINK1 expr mod	D2 ag	CtBP-E1A blk	D2 PAM
Cc1ccc(Cn2c(SCC(=O)N/N=C/c3ccccc3OCC(=O)O)nc3ccccc32)cc1	-18	0.1	-0.6%	-1.3	-9	-7
Cc1cc(C)c2c(=O)[nH]c(SCC(=O)N3CCCCC3)nc2n1	-2	0.5	3.8%	-5.0	8	-10
COc1cccc(NC(=O)CNC(=O)c2ccc(F)cc2)c1	11	-0.9	-0.8%	-1.0	-17	7
CSCC[C@H](NC(=O)c1cccc(S(=O)(=O)N2CCN(C)CC2)c1)c1nc2ccccc2[nH]1	-10	-0.7	-0.9%	-0.6	3	-6
CN1CCOC(=O)/C1=N/Nc1cc(Cl)ccc1Cl	-8	1.1	2.4%	2.7	-5	0
CN(Cc1ccc(-n2cccn2)cc1)Cc1nc(-c2cnccn2)no1	-2	-0.4	1.4%	2.3	10	-4
COc1ccc(C(=O)Nc2ccc(NC(=O)c3cccs3)cn2)cc1	5	0.5	4.5%	0.8	3	-4
COc1ccc(S(=O)(=O)N2CCC(=O)N2)cc1	8	0.1	-1.5%	-4.2	8	-25
N#CC1=C(N)NC(=S)C(C(N)=O)C1c1ccc(Cl)cc1Cl (stereo unspecified)	-2	0.4	-1.8%	-9.4	2	-29
O=C(c1cc(-c2cccc(Cl)c2)on1)N1CCN(c2ccc(F)cc2)CC1	-5	0.1	16%	-3.4	-10	-4
CCO[C@@H]1OC(C(=O)N2CCCCCCC2)=C[C@H](C2CCCCC2)[C@H]1CCCO	4	2.1	-1.0%	-4.2	0	-9
Nc1ccccc1C(=O)N/N=C1/C2CN3CCN(C2)CC1(Cc1ccccc1)C3	14	-0.7	1.0%	-3.7	2	-4
CN(c1ccccc1)c1ncccn1	3	3.6	0.4%	-2.1	6	-5
C/C(=N/NC(=O)CNC(=O)c1ccccc1F)c1ccc2c(c1)CCCC2	1	1.5	9.0%	-1.0	6	-1
CNC(=O)c1c(NC(=O)CCS(=O)(=O)c2ccccc2)sc(C)c1C	4	0.3	-1.3%	-1.3	4	1
CC(=O)c1cnc(-c2ccccc2)s1	13	-0.3	-0.1%	-3.4	8	-9
CCOC(=O)c1ccc(NC(c2ccc(N(C)C)cc2)P(=O)(OC(C)C)OC(C)C)cc1 (stereo unspecified)	?	7.3	0.1%	-3.8	-27	-13
COC(=O)C(N)Cc1ccc(O)cc1 (stereo unspecified)	3	-0.4	-1.2%	-1.6	18	14
Cc1occc1-c1nnc(SCC(=O)c2ccc(Cl)cc2)n1C	-1	-1.3	-0.9%	-5.1	1	-10
CCOC(=O)C1CCN(C(=O)CCN2C(=O)C3C4C=CC(C4)C3C2=O)CC1 (stereo unspecified)	4	0.6	1.2%	-1.0	-3	-7

The list goes on; the last 4 above are carried over.
SMILES	Six1-Eya2 inh	TRPML1 agonist	PINK1 expr mod	D2 ag	CtBP-E1A blk	D2 PAM
CCOC(=O)c1ccc(NC(c2ccc(N(C)C)cc2)P(=O)(OC(C)C)OC(C)C)cc1 (stereo unspecified)	?	7.3	0.1%	-3.8	-27	-13
COC(=O)C(N)Cc1ccc(O)cc1 (stereo unspecified)	3	-0.4	-1.2%	-1.6	18	14
Cc1occc1-c1nnc(SCC(=O)c2ccc(Cl)cc2)n1C	-1	-1.3	-0.9%	-5.1	1	-10
CCOC(=O)C1CCN(C(=O)CCN2C(=O)C3C4C=CC(C4)C3C2=O)CC1 (stereo unspecified)	4	0.6	1.2%	-1.0	-3	-7
Cc1c(NC(=O)/C(=C/c2cccs2)NC(=O)c2ccccc2)c(=O)n(-c2ccccc2)n1C	1	-0.1	0.9%	-2.7	.	-4
CN(C)c1ccc(NC(=O)CC2NCCNC2=O)cc1 (stereo unspecified)	-2	-0.2	2.6%	0.3	5	-2
COC(=O)c1ccccc1NC(=O)CN1C(=O)NC2(CCCCCCC2)C1=O	-20	-1.0	-0.6%	-2.4	.	-18
Cc1ccc(CN(Cc2cc3cc(C)ccc3[nH]c2=O)C(=O)N2CCOCC2)cc1	4	0.1	-1.2%	-0.8	-2	-7
CCNc1nc(Oc2ccc(=O)[nH]n2)nc(N2CCOCC2)n1	5	-0.2	-1.9%	0.4	-11	-6
O=C(CSc1nc(-c2ccc(F)cc2)cc(C(F)(F)F)n1)Nc1ccc2c(c1)OCO2	2	2.4	14%	-2.9	5	-7
O=C(CN1CCOc2ccccc21)NCc1ccc(Cl)cc1	-9	0.2	0.5%	3.4	1	-1
COc1ccc(CN2CN(C(C)C)CSC2=S)cc1	1	0.3	-2.3%[38.3 µM]	2.4	-3	-3
O=C(O)c1cc(S(=O)(=O)NC(CO)C(O)c2ccc([N+](=O)[O-])cc2)ccc1Br (stereo unspecified)	2	-0.6	2.2%	-5.4	9	-1
CCOc1ccc(Oc2ccc(S(=O)(=O)N3CCOCC3)cc2NC(=O)C2=COCCO2)cc1	-7	1.1	?	-0.2	-6	20
CN(CC(=O)Nc1cccc(F)c1)C(=O)c1cc2c(s1)CCCCC2	-9	4.0	8.0%	-4.3	-16	-66
Cc1cccc(OCC(=O)N2CCN(C(=O)c3cccs3)CC2)c1	-3	2.1	-1.9%	-2.1	1	3
N#Cc1ccccc1CSc1nc2ccc(NC(=O)c3ccccc3C(=O)O)cc2s1	0	0.6	-2.0%	4.2	-16	7
O=C1CSC(=S)N1/N=C/c1cccnc1	-14	0.6	0.6%	5.2	-13	-1
O=C(NCCCNC(=O)c1ccccn1)c1cccc(F)c1	5	0.6	-0.9%	-4.9	1	-4
Cc1c(Cl)cccc1NC(=O)c1ncn[nH]1	?	.	0.5%	-4.5	-7	-4
O=C(COC(=O)c1ccc(Cl)c(S(=O)(=O)N2CCCCC2)c1)NCc1ccco1	-20	-0.4	3.3%	-0.8	2	-4
O=C(NC(=S)NC1CCS(=O)(=O)C1)c1ccccc1F (stereo unspecified)	1	0.6	-0.7%	-4.4	7	-3
O=C1C=C(N2CCOCC2)C2(CCCCC2)O1	-1	1.4	-2.4%	4.5	4	-4
COc1ccc(/C=N/n2cnc3c([nH]c4ccccc43)c2=O)cc1CO	-1	.	9.6%	-4.9	3	-5
COc1cccc(NC(=O)CN(C)C(=O)CN2C(=O)c3ccc([N+](=O)[O-])cc3C2=O)c1	0	0.1	6.7%	14	-2	6
CC[C@@H](CC1CCCCC1)C(=O)N(Cc1ccccc1)c1ccccc1	18	2.6	28%	-1.0	19	-9
CCC(c1nnnn1Cc1ccco1)N(Cc1cc2cc(C)cc(C)c2[nH]c1=O)CC1CCCO1 (stereo unspecified)	4	-0.8	4.9%	1.5	-5	6
C[C@H]1CN([C@@H](C)CO)C(=O)c2cccc(NC(=O)Nc3ccc(C(F)(F)F)cc3)c2O[C@@H]1CN(C)C(=O)Nc1ccc(F)cc1	-5	6.2	2.8%	4.2	1	-6
CC1CCCCC1NC(=O)COC(=O)c1ccc2c(c1)NC(=O)CS2 (stereo unspecified)	5	2.2	4.1%	-5.6	3	-16
O=C(CN(C1CC1)S(=O)(=O)c1ccc(S(=O)(=O)NC2CCCCC2)cc1)Nc1ccccc1	-1	0.9	-2.2%	0.1	-10	-12
Cc1ccc(C(=O)C(OC(=O)CN2C(=O)c3ccccc3C2=O)c2ccccc2)cc1 (stereo unspecified)	3	-0.1	.	-3.5	-3	-14
Cc1ccccc1-n1c(SC(C)C(=O)N2CCN(C)CC2)nc2ccccc2c1=O (stereo unspecified)	17	1.6	-2.9%	2.1	0	-4
CC(C)[C@H](NC(N)=O)C(=O)Nc1cccc([N+](=O)[O-])c1	4	0.3	1.2%	-1.9	9	2
CCc1ccc(N2CC(C(=O)OCc3csc(CC(=O)Nc4ccccc4C)n3)CC2=O)cc1 (stereo unspecified)	4	0.8	1.5%	-4.5	-2	-3
CCCc1nc2c(C)cc(Br)cn2c1Cc1ccccc1	12	-0.5	1.6%	-2.8	25	-9
CCc1nc2ccc(C(=O)Nc3cc(-c4ccccc4)ccc3OC)cn2c1N(C)C(=O)c1cccc(OC)c1	-11	0.0	2.4%	3.3	1	-5
CC(C)CCN1CCC(C)(NC(=O)c2ccccc2)C1=O (stereo unspecified)	-5	0.8	0.7%	-4.1	0	-9
O=C(NCc1c(Cl)cccc1Cl)c1ccc2nnsc2c1	5	0.5	2.2%	1.0	5	-6
COc1ccc(-c2[nH]c3ccccc3c2SCCN)cc1	-7	2.8	4.7%	-3.0	-26	-25
CCCCNc1nc2c(c(=O)n(Cc3ccccc3)c(=O)n2C)n1C	-3	2.6&-0.4	-1.0%&0.6%	3.4	.	3
C[C@H](CO)N1C[C@H](C)[C@@H](CN(C)C(=O)c2ccccc2)Oc2cc(C#C[C@@H](C)O)ccc2S1(=O)=O	-15	-0.2	2.7%	-6.7	16	0
CC1CCN(C(C(=O)Nc2ccc(C(C)C)cc2)c2ccc3c(c2)OCO3)CC1 (stereo unspecified)	-7	0.7	?	-3.4	0	-5
Cc1ccc(S(=O)(=O)N2CCOCC2)cc1C(=O)OCC(=O)NCCc1ccccc1	-5	-1.4	0.4%	0.1	.	-4
Cc1cnc(C(=O)OCC(=O)NC2CCCCC2)cn1	23	2.9	-2.5%	-1.6	0	-14
CCOc1cc(S(=O)(=O)Nc2ccccn2)ccc1F	3	-0.6	0.4%	-1.3	4	-4
CCOc1ccc2nc(NC(=O)c3cc([N+](=O)[O-])ccc3N3CCOCC3)sc2c1	-5	-0.1	2.6%	-1.7	.	1
C/C(=N\NC(=O)c1cc(C2CC2)nc2ccccc12)c1ccc(O)cc1O	-9	1.0	0.1%	0.4	-20	-21
COc1cc(C2Nc3cccc4cccc(c34)N2)cc(OC)c1O	-10	0.3	?	-0.7	8	-16
O=C(CN1CCOCC1)N1CCN(c2nnc(-c3ccccc3)c3ccccc23)CC1	-5	-1.1	-1.2%	-1.8	-3	-5
CCCCOC(=O)c1ccc(NC(=O)c2c(Cl)ccc(Cl)c2OC)cc1	31	1.8	2.0%	0.3	21	-13
CCOc1ccc(NCc2nnc(SCc3ccccc3Cl)n2-c2ccccc2)cc1	?	0.7	22%[38.3 µM]	-4.4	?	-22
C#CCO[C@@H]1C[C@H](n2ccc(NC(=O)c3ccccc3)nc2=O)O[C@@H]1CO	4	1.1	-1.4%	-2.7	4	-9
CC(=O)N1CCc2cc(Br)cc(S(=O)(=O)NCCCN3CCCC(C)C3)c21 (stereo unspecified)	8	-0.2	-1.5%	-3.0	-2	-15
COc1ccccc1Cc1noc(COc2cccc(C)c2C)n1	56	3.4	-0.2%	0.7	49	-4
C=CCn1ncc(OC)c(Cl)c1=O	3	1.6	-5.0%[38.3 µM]	-2.7	2	-4
Cn1c(SCc2c(Cl)cccc2Cl)nc(C(F)(F)F)cc1=O	5	1.5	17%[38.3 µM]	-4.0	13	4
COc1cc(OC)cc(-c2c(-c3ccsc3)c3cc(Br)ccc3n2C)c1	-4	-0.3	-0.6%	-0.7	-25	-4
COc1ccc2c([N+](=O)[O-])c(N3CCOCC3)[nH]c2c1	10	-0.3	-0.1%	-2.0	-14	-5
O=C(NC1CCCCCC1)C1CCN(C(=O)c2ccc(Br)cc2)CC1	4	0.0	1.1%	0.2	4	-3
